# HEK293 NFkB inh: inhibitors of the PMA/ionomycin-induced NF-kB reporter in HEK293 cells. HEK-293 NF-kB luciferase reporter, luminescence. inhibition, % at 3 µM. 62,000 tested, 0.21% active. AID 465;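 active = inhibition above the mean of all tested compounds plus 3 SD, cut at about 40% in these data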;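 also: 0% = stimulated DMSO wells and 100% = 10 µM reference inhibitor 5653914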
#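 Timing: 1 h pretreatment, 16 h stimulation, 37 °C; system: HEK-293 cells with stable firefly luciferase reporter driven by four HIV NF-kB elements; doses: 3 µM once, 0.30% DMSO; measured by: luciferase luminescence; control set: DMSO and 10 µM reference inhibitor; repeats: single test; reagent: PMA plus ionomycin mix as NF-kB-activating stimulus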
# DUSP1 inh: blocks human MKP-1 phosphatase activity; P28562; recombinant MKP-1, OMFP hydrolysis fluorescence; inhibition, %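 (compounds tested at a single concentration somewhere between 10 and 100 µM)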; 65,000 tested, 0.15% active;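 active = inhibition above about 50%, limit read from the data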;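 also: 0% = DMSO max control wells and 100% = wells with enzyme stopped by NaOH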
# Target sequence (P28562 whole entry, looked up): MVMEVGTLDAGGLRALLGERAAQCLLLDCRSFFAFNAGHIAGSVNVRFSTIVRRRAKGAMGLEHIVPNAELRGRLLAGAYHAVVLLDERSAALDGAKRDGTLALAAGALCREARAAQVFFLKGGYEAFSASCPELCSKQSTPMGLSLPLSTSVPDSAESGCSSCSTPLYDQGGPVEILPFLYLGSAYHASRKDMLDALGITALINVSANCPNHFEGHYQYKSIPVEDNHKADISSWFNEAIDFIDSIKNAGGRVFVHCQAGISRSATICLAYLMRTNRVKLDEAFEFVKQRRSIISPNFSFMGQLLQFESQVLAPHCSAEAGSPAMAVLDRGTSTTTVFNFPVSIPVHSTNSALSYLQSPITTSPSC
# JNK3 inh: inhibitors of human JNK3 kinase; purified JNK3 kinase activity, HTS; 60,000 tested, 0.61% active; inhibition, % at 8 µM; P53779; in the data active = inhibition above about 17%;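 also: 0% = DMSO and 100% = reference inhibitor; many of its hits are not listed in these tables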
# Target sequence (P53779 whole entry, looked up): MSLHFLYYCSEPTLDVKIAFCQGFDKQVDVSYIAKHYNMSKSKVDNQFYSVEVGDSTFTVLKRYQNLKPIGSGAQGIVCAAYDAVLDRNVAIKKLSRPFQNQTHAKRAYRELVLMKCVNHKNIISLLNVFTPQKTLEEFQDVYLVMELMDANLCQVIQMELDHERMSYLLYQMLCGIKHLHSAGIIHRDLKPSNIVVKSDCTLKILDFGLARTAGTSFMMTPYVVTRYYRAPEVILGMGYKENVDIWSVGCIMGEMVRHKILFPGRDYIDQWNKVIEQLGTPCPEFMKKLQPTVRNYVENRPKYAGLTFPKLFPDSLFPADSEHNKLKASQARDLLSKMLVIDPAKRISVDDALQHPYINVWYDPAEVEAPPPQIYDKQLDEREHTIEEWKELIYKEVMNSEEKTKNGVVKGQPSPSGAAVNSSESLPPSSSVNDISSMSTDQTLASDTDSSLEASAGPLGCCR
# Jurkat viability: cytotoxicity toward Jurkat cells. 56,000 tested, 1.2% active. AID 463. Jurkat E6.1 viability, ATP luminescence, 48 h. inhibition, % at 4 µM;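 active = inhibition above the mean inhibition of all tested compounds plus 3 SD, cut at about 28% in these data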
# Cdc25B block: human M-phase inducer phosphatase 2 inhibition; P30305; recombinant Cdc25B, OMFP fluorescence Ex485/Em525; inhibition, %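 (compounds tested at 10 µM final in the well)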; 65,000 tested, 0.1% active; AID 368; in the data active = inhibition above about 50%
# TNAP act DEA: activates human TNAP at intermediate phosphate acceptor concentration. P05186. purified TNAP, CDP-star luminescence, 100 mM DEA, 30 min; stronger effect = higher value; scale: 0 levamisole-inhibited, 1 vehicle-only enzyme. activation factor at 20 µM. 64,000 tested, under 10 active. AID 813;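 active = activation factor of at least 2 at 20 µM, relative to controls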
# MMP-13 inhibitor: blocks human MMP13 activity | P45452 | MMP-13 fTHP FRET cleavage, Mca fluorescence | inhibition, % at 4 µM | 65,000 tested, 0.07% active | AID 570;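 active = inhibition above the mean of compound-free control plate wells plus 3 SD, cut at about 14% in these data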;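 also: 0% = DMSO wells and 100% = wells with reference MMP-13 inhibitor after basal subtraction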
# * = called active by the depositor; x = not tested or not shown; [ ] = another dose, or the depositor's remark.
# Start of the listing, in advance (21 entries):
SMILES,HEK293 NFkB inh,DUSP1 inh,JNK3 inh,Jurkat viability,Cdc25B block,TNAP act DEA,MMP-13 inhibitor
O=C(Cc1cccs1)Nc1ccccn1,3,5,9,0,-3,1,2
COc1cc(-c2ccc(NC(=O)CN3CCCCC3)c(OC)c2)ccc1NC(=O)CN1CCCCC1,11,-6,-1,-3,-22,0.9,1
Cc1ccc(-n2c(=O)[nH]c3c(C(N)=O)nc(-c4ccc(C)o4)nc32)cc1,-6,43,5,1,2,1.1,-12
COc1ccc(-c2nnc(-c3ccc(N(C)C)cc3)o2)cc1,-6,19,-9,0,-8,0.9,-210[fluorescence artefact?]
Cc1ccc(N2CC(C(=O)NC3=NCCS3)CC2=O)cc1C (stereo not given),11,2,1,1,5,1,-7
COC(=O)CSc1nnc(-c2ccncc2)o1,14,3,-5,7,-8,0.9,2
COCCSc1ccccc1C(=O)Nc1ccncc1,16,-4,1,0,-6,0.9,2
CCc1c(C(=O)Nc2ccncc2)csc1C,4,2,2,26,-8,1,4
COc1cc(S(=O)(=O)N2CCCCCC2)ccc1Cl,9,0,0,-4,-4,1,8
COc1nc(OC)nc(N2CCC(C(=O)Nc3cccc4ccccc34)CC2)n1,3,21,5,0,4,0.9,6
OCCOCCNc1ncnc2nc[nH]c12,12,7,3,1,6,1,-5
CC1(C)CC(=O)c2cnc(NC(=O)c3ccco3)nc2C1,14,-10,-6,4,-1,1,5
CCOc1ccc(C(=O)NCC2CCCO2)cc1 (stereo not given),4,0,-2,-6,-8,0.9,-2
O=C(CCSc1nc(-c2ccc3c(c2)OCO3)cc(C(F)(F)F)n1)NCc1ccco1,5,4,-6,-1,0,1,-148[fluorescence artefact?]
CCn1c(SCC(=O)Nc2nc(C)cs2)nnc1-c1cccnc1,6,12,2,9,-1,0.9,2
CCc1ccc(Cn2nnc(C(=O)Nc3cccc(C)c3)c2N)cc1,11,9,-1,6,2,0.9,6
Cc1ccc2c(n1)sc1c(N)ncnc12,-12,16,5,-4,-1,0.9,-19
CCOc1ccccc1NC(=O)C1CCN(S(=O)(=O)c2ccc(OC)c(OC)c2)CC1,24,15,2,4,-8,0.9,4
Cc1nc2c(cnn2-c2ccc(Cl)cc2)c(=O)n1-c1ccc2c(c1)OCCO2,22,4,-4,-2,10,0.9,1
Cc1nc(NC(=O)c2ccccc2)sc1-c1csc(NCc2ccco2)n1,14,-1,-1,6,-10,0.9,-1
O=C(CSc1nnc(-c2ccc(O)cc2)n1Cc1ccco1)c1cccs1,18,-15,-14,5,-2,0.9,4

# The list itself (from the top)
SMILES,HEK293 NFkB inh,DUSP1 inh,JNK3 inh,Jurkat viability,Cdc25B block,TNAP act DEA,MMP-13 inhibitor
O=C(Cc1cccs1)Nc1ccccn1,3,5,9,0,-3,1,2
COc1cc(-c2ccc(NC(=O)CN3CCCCC3)c(OC)c2)ccc1NC(=O)CN1CCCCC1,11,-6,-1,-3,-22,0.9,1
Cc1ccc(-n2c(=O)[nH]c3c(C(N)=O)nc(-c4ccc(C)o4)nc32)cc1,-6,43,5,1,2,1.1,-12
COc1ccc(-c2nnc(-c3ccc(N(C)C)cc3)o2)cc1,-6,19,-9,0,-8,0.9,-210[fluorescence artefact?]
Cc1ccc(N2CC(C(=O)NC3=NCCS3)CC2=O)cc1C (stereo not given),11,2,1,1,5,1,-7
COC(=O)CSc1nnc(-c2ccncc2)o1,14,3,-5,7,-8,0.9,2
COCCSc1ccccc1C(=O)Nc1ccncc1,16,-4,1,0,-6,0.9,2
CCc1c(C(=O)Nc2ccncc2)csc1C,4,2,2,26,-8,1,4
COc1cc(S(=O)(=O)N2CCCCCC2)ccc1Cl,9,0,0,-4,-4,1,8
COc1nc(OC)nc(N2CCC(C(=O)Nc3cccc4ccccc34)CC2)n1,3,21,5,0,4,0.9,6
OCCOCCNc1ncnc2nc[nH]c12,12,7,3,1,6,1,-5
CC1(C)CC(=O)c2cnc(NC(=O)c3ccco3)nc2C1,14,-10,-6,4,-1,1,5
CCOc1ccc(C(=O)NCC2CCCO2)cc1 (stereo not given),4,0,-2,-6,-8,0.9,-2
O=C(CCSc1nc(-c2ccc3c(c2)OCO3)cc(C(F)(F)F)n1)NCc1ccco1,5,4,-6,-1,0,1,-148[fluorescence artefact?]
CCn1c(SCC(=O)Nc2nc(C)cs2)nnc1-c1cccnc1,6,12,2,9,-1,0.9,2
CCc1ccc(Cn2nnc(C(=O)Nc3cccc(C)c3)c2N)cc1,11,9,-1,6,2,0.9,6
Cc1ccc2c(n1)sc1c(N)ncnc12,-12,16,5,-4,-1,0.9,-19
CCOc1ccccc1NC(=O)C1CCN(S(=O)(=O)c2ccc(OC)c(OC)c2)CC1,24,15,2,4,-8,0.9,4
Cc1nc2c(cnn2-c2ccc(Cl)cc2)c(=O)n1-c1ccc2c(c1)OCCO2,22,4,-4,-2,10,0.9,1
Cc1nc(NC(=O)c2ccccc2)sc1-c1csc(NCc2ccco2)n1,14,-1,-1,6,-10,0.9,-1
O=C(CSc1nnc(-c2ccc(O)cc2)n1Cc1ccco1)c1cccs1,18,-15,-14,5,-2,0.9,4
Clc1ccc(Cc2nn3c(Cn4nnc5ccccc54)nnc3s2)cc1,3,1,3,3,4,1,-2
Cc1c(NC(=O)C2CCCCN2S(=O)(=O)c2ccc(Cl)cc2)c(=O)n(-c2ccccc2)n1C (stereo not given),6,-8,-7,0,-23,0.9,6
Cc1cccc(Nc2ncnc3nc[nH]c23)c1,2,2,7,-2,0,1.1,-9
Cc1ccc(OCCSc2nnc(-c3ccncc3)n2C)cc1,6,-7,-3,-5,-12,0.9,-2

# Further compounds follow:
SMILES,HEK293 NFkB inh,DUSP1 inh,JNK3 inh,Jurkat viability,Cdc25B block,TNAP act DEA,MMP-13 inhibitor
Cc1ccc2[nH]c3c(N4CCN(Cc5ccc6c(c5)OCO6)CC4)ncnc3c2c1,x,-6,-7,x,1,0.8,-44
O=C(Nc1ccc(O)cc1)c1cc(S(=O)(=O)N2CCCC2)ccc1Cl,13,7,-7,10,-2,0.8,4
Fc1ccc2[nH]c3c(N4CCN(Cc5ccc6c(c5)OCO6)CC4)ncnc3c2c1,x,-25,2,x,-5,0.9,-19
CC1(C)CC(=O)C(/C=N/c2ccccn2)=C(O)C1,15,1,7,2,-3,0.9,2
CC(=O)N1CCc2cc(C(=O)CN3CCCCC3)ccc21,-2,-5,8,-3,-2,1,-15
O=c1c2c3nc4ccccc4nc3n(/N=C/c3cccs3)c2ncn1-c1ccccc1,18,5,2,1,8,0.9,-3
Cc1cc(=O)oc(C)c1C(=O)N[C@@H]1CCCCNC1=O,x,-22,-6,x,26,0.9,-9
COc1ccc(Cl)cc1NC(=O)C1CC(=O)N(c2ccc(F)cc2)C1 (stereo not given),19,-7,5,-9,-2,0.9,-2
COC(=O)c1ccccc1NC(=O)C1CC(=O)N(c2ccc(F)cc2)C1 (stereo not given),11,0,0,-8,-12,0.8,-9
COc1ccc(NC(=O)NCc2cccn2C)c(OC)c1,1,1,-2,3,-3,x,2
C=CCn1c(SCC(=O)c2cccs2)nnc1-c1cccc(OC)c1,9,34,7,-4,-14,0.9,1
CC1(C)CC(=O)c2cnc(NC(=O)C3CCCC3)nc2C1,8,8,-2,-5,-16,1.1,4
COc1ccccc1C1=Nn2c(nnc2C2CCCCC2)SC1,12,37,-4,-3,-9,1,2
c1cnc2ccc(C(c3nnnn3C3CCCC3)N3CCN(c4nc5ccccc5s4)CC3)cc2c1 (stereo not given),18,33,-3,-1,-11,0.9,1
CCN(C(=O)c1cc2cc3ccc(C)cc3nc2o1)c1ccc(OC)cc1,19,4,5,4,12,0.9,-4
Cc1c(C(=O)OCc2ccccc2)nnn1-c1nonc1N,16,0,0,5,-1,0.9,2
COc1ccc(OC)c(C2=Nn3c(nnc3-c3ccco3)SC2)c1,x,-23,-2,x,13,0.8,-2
CCOc1ccc(OCC)c(NC(=O)CSc2nnc(-c3cccnc3)o2)c1,6,-11,0,-3,0,0.9,9
COC(=O)Cc1c(C)nc2nc(NCc3c(F)cccc3Cl)[nH]n2c1=O,15,9,1,-5,-2,1,-3
Fc1ccc(CSc2ncnc3nc[nH]c23)cc1,-1,7,-3,1,-7,0.9,7
O=C(CN1C(=O)NC2(CCCCCCC2)C1=O)N1CCOCC1,7,14,2,0,-9,1,-1
CC1(C)CC(=O)C(C=Nc2ccccc2C(=O)O)=C(O)C1,8,8,5,2,-7,1,-21
O=C(Cn1nnc(-c2ccccc2-n2cnnn2)n1)NCc1ccccc1,-16,-21,-3,-6,7,0.9,6
COc1cccc(-c2noc(CCC(=O)NC3CCCCC3)n2)c1,6,-2,-2,1,1,0.8,2
O=C(COc1ccc(Cl)cc1)Nc1nnc(-c2ccc3c(c2)CCCC3)o1,-18,10,4,-13,-18,0.9,2

# Pulled by structure from the entries so far (two):
SMILES,HEK293 NFkB inh,DUSP1 inh,JNK3 inh,Jurkat viability,Cdc25B block,TNAP act DEA,MMP-13 inhibitor
Cc1cccc(Nc2ncnc3nc[nH]c23)c1,2,2,7,-2,0,1.1,-9
CC1(C)CC(=O)C(C=Nc2ccccc2C(=O)O)=C(O)C1,8,8,5,2,-7,1,-21

# Next entries.
SMILES,HEK293 NFkB inh,DUSP1 inh,JNK3 inh,Jurkat viability,Cdc25B block,TNAP act DEA,MMP-13 inhibitor
COc1ccccc1OCc1ccc(C(=O)Nc2ccncc2)o1,2,1,2,21,-5,0.9,5
CCCCCCn1c(-c2ccco2)nc2oc3cc(OC)ccc3c(=O)c2c1=O,12,-11,-3,-2,8,0.9,-2
COc1ccc(NC(=O)CCc2nc(-c3ccccc3F)no2)cc1,20,-2,0,1,9,1,3
Clc1ccc(CSc2nnc(-c3ccncc3)o2)cc1,14,-7,9,0,1,0.9,0
COc1ccc(C(c2nnnn2C2CCCCC2)N2CCN(c3ccccc3F)CC2)cc1 (stereo not given),26,-18,-10,-6,-4,0.9,4
CCN(CC)S(=O)(=O)c1ccc2c3c(cccc13)C(=O)N2,6,11,-9,-2,6,0.9,-19
Cc1ccc(C(=O)OCC(=O)NCc2ccc3c(c2)OCO3)s1,2,-6,4,-6,-6,0.9,-13
O=C1c2ccccc2-c2ncnc3cccc1c23,-2,8,2,-6,2,0.9,4
CCc1nc2oc3cc(OC)ccc3c(=O)c2c(=O)n1-c1ccccc1,0,15,-8,-4,-9,1,4
CCn1c(SCC(=O)c2cc(OC)ccc2OC)nnc1-c1ccncc1,7,-2,-8,4,3,0.9,-6
Cc1ccc(C(=O)NCCCN2CCOCC2)cc1N1CCCC1=O,14,7,-3,-3,5,1,-1
COC(=O)c1sc(NC(=O)CSc2nc3cccnc3n2C2CCCCC2)nc1C,7,32,-3,-6,-12,0.9,0
Cc1ccc(C)c(CSc2nnc(-c3cccnc3)n2N)c1,1,-12,-6,2,-5,0.9,4
CC(=O)c1ccc(-n2nnnc2SCC(=O)N2CCN(C(=O)c3ccco3)CC2)cc1,7,-1,-3,-2,-4,1,0
Cc1ccc(OCC(=O)N2CCN(C(=O)c3cccs3)CC2)cc1,20,3,1,-6,-3,0.9,4
Cc1ccc(NC(=O)CCSc2nnnn2-c2ccc3c(c2)OCO3)cc1C,16,3,4,0,3,0.9,-2
CC(C)CC(NC(=O)C(NC(=O)OC(C)(C)C)C(C)C)C(=O)N1CCCC1C(N)=O (stereo not given),16,7,-2,-3,-1,0.9,-8

# Assay outcomes as filed in PubChem.

# A portion of the library; count on the stated rates, not on these rows.
